Bioassay records (PubChem BioAssay)
ALR H2O2 inh: blocks human ALR sulfhydryl oxidase activity | 290,000 tested, 3.8% active | AID 485317 | P55789 | inhibition, % (test concentration not listed) | purified ALR, DTT oxidation, H2O2 HRP-luminol luminescence;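 active = mean and each replicate at 75% or more; inconclusive = only one of the two met; inactive = neither met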;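 also: stock transfer was 7.5 nL into about 7.5 µL; 0% = neutral wells and 100% = wells with inactivated enzyme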
Target sequence (P55789 whole entry, looked up): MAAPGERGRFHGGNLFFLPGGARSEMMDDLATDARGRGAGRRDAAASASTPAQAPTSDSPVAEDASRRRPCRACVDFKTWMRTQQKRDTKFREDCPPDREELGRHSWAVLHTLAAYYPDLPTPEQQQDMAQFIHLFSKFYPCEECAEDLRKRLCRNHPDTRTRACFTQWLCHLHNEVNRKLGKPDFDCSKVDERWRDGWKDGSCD
Ecoli rRNA inh: selective bacterial rRNA inhibition in E. coli; E. coli WT GFP vs humanized-ribosome RFP mutants, fluorescence, 24 h; stronger effect = lower value; DMSO median 0, no signal -100; GFP signal change (wild-type ribosome), % (no concentration beside the values); 350,000 tested, 1.6% active; AID 720706;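 active = significant combined selectivity score with lowered wild-type GFP, culture density cut under 30%, mutant RFP and density less affected; inactive = any of these conditions unmet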; also: one replicate is shown; some compounds called inactive have numbers as strong as hits
Ecoli growth: blocks Escherichia coli growth. OD600, 23 h; stronger effect = lower value. OD600 absorbance (concentration not given with the values). 330,000 tested, 0.21% active. AID 1053175;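 active = OD600 absorbance below the run mean of sample wells minus 3.6 SD, in any replicate, cut at about 0.56 in these data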;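 also: stock transfer was 300 nL into about 60 µL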
HNF4A DNA FP: change in binding of human HNF4 alpha to DNA. P41235. HNF4a-FITC DNA binding, fluorescence polarization, 1 h. activity change, % at 10 µM. 360,000 tested, 0.3% active; in the data active = activity change above about 30%, passing the limit was not always enough;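 also: controls were the assay level and a saturating level of protein; the project sought stronger binding though the title names inhibitors; some compounds called inactive have numbers as strong as hits; positive values seem to mean higher polarization but the record does not say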
Target sequence (P41235 whole entry, looked up): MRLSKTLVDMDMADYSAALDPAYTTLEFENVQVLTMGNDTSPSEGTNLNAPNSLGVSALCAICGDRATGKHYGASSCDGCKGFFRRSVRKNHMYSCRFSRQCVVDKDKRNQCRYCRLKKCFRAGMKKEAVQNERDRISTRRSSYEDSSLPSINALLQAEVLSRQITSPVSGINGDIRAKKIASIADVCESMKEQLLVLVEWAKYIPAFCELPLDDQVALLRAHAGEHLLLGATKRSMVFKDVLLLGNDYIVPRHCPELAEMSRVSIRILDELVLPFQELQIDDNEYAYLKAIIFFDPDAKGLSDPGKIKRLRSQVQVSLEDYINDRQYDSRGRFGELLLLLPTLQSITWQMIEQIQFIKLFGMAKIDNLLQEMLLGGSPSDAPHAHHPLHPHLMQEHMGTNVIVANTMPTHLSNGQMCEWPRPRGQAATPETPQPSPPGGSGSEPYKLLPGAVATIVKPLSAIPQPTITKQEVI
Vif TR-FRET: inhibitors of Vif binding to APOBEC3G peptide, primary screen, biochemical, TR-FRET, GST-Vif 1-94, biotin-A3G peptide, dose response retest (AID 1117319); TR-FRET GST-Vif / biotin-A3G peptide binding; higher % means a stronger effect; test concentration not given here; strong numbers were not always called active; one-dose inhibition, %; IC50 in µM for titrated hits; 260,000 tested, 0.57% active;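 active = above the screen mean plus three standard deviations and confirmed in dose response; inconclusive = results disagree or hit not tested in dose response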;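 also: Vif residues 1-94 fused to GST binding biotinylated APOBEC3G peptide 110-148; 0% = full assay without inhibitor and 100% = GST in place of GST-Vif; retest series ran down from 100 µM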
FGF22 binding: binders of recombinant human FGF22 by thermal shift | Q9HCT0 | 340,000 tested, 1.5% active | SYPRO orange fluorescence; percent of sucrose octasulfate shift, DMSO zero | AID 651658 | calls only at 9.99 µM;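 active = melting point raised past a set limit in the mean and every replicate; inconclusive = no clear call; three in four hits are not shown here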
Target sequence (Q9HCT0 whole entry, looked up): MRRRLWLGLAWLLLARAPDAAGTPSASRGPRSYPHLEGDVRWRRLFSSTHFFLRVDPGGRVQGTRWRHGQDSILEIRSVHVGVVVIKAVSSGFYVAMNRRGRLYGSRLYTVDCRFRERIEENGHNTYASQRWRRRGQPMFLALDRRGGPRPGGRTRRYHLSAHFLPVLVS
MLL AF4-AF9 inh: MLL-AF4/AF9 protein interaction inhibition; P42568; AlphaScreen, biotin-AF4 peptide binding to FLAG-AF9; inhibition, % at 10 µM; 350,000 tested, 0.47% active; AID 651704;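 active = every replicate reaching a set inhibition limit, whatever the replicate mean, cut at about 25% in these data; inconclusive = mean inhibition reaches that limit but some replicates miss it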;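 also: 0% = plate neutral control median and 100% = total signal loss; the record names both 10 and 1 µM as test concentration; the first replicate is given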
Ecoli rRNA inh OD600: also measured in Ecoli rRNA inh; calls as there; OD600 change, %; measured here: OD600 growth;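 optical density of the mix in the first replicate; 0 = DMSO median and -100 = no signal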
Ecoli rRNA inh RFP: second read-out of Ecoli rRNA inh, no call of its own (marks repeat the call); RFP signal change, %; measured here: RFP humanized mutant strains;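 first replicate; 0 = DMSO median and -100 = no signal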
The depositor's hits bear a star; i = inactive; ? = inconclusive; . = no result given; & = joins results of further samples.

SMILES	ALR H2O2 inh	Ecoli rRNA inh	Ecoli rRNA inh OD600	Ecoli rRNA inh RFP	Ecoli growth	HNF4A DNA FP	Vif TR-FRET	FGF22 binding	MLL AF4-AF9 inh
COCCN(CC(=O)NCc1ccc2c(c1)OCO2)C(=O)CCC(=O)Nc1nccs1	2	.	.	.	0.75	6.3	19%	.	.
O=C(O)c1cccc(C(=O)c2cccc(C(=O)O)c2)c1	-8	13	8	-0.1	0.66	0.6	26%	i	-1.7
COC(=O)CCC(=O)Nc1cccc([N+](=O)[O-])c1	1	.	.	.	0.67	0.0	.	i	-0.1
Clc1ccc(-c2nnc(-c3cccc4ccccc34)o2)cc1	.	-1	-5	-4.9	0.7	0.8	-7%	i	-2.7
CC(=O)Nc1ccc(S(=O)(=O)/N=C2\C(=O)c3ccccc3C([O-])=C2n2cc[n+](-c3ccccn3)c2)cc1	-71	4	-2	8.1	0.64	-2.8	25%	i	4.9
O=C(CCn1c(=S)oc2ccccc21)Nc1ccc(F)cc1	-2	7	7	0.7	0.73	-0.2	-1%	i	-0.2
Cc1cc(C(=O)N2CCCC(C(=O)c3ccc(Oc4ccccc4)cc3)C2)n[nH]1 (stereo not drawn)	.	-21	-27	-0.4	0.68	-0.3	.	i	4.0
CCCC(=O)Nc1ccc2c(c1)C(=O)N(C)C[C@H](OC)[C@@H](C)CN(CCC(F)(F)F)[C@@H](C)CO2	.	0	6	-3.5	.	.	.	i	-0.3
C=CCn1c(SCc2ccccc2)nc(O)cc1=O	64	.	.	.	0.81	6.1	?	.	.
O=C1CCCN1CCCNc1ccc2nnc(CCC(=O)N3CCN(c4ccccc4)CC3)n2n1	23	2	-2	-1.2	0.7	1.7	.	i	0.5
Cc1ccc2c(c1)C(O)(CC(=O)c1cccc(-n3cccc3)c1)C(=O)N2 (stereo not drawn)	-8	-10	-5	5.0	0.71	1.4	14%	i	12
CN1CCN(CCCNC(=O)c2ccc(CS(=O)(=O)c3ccc(Br)cc3)o2)CC1	-6	10	6	-0.7	0.74	1.2	0%&-5%	i	0.0
CSc1nc2nccc(-c3ccc(Oc4ccccc4)cc3)n2n1	.	.	.	.	0.7	-2.1	29%	.	.
Cc1cc(C)n2nc(NCc3ccccc3)nc2n1	-2	.	.	.	0.72	-3.0	3%	.	.
CN1CCCN(C(=O)c2ccc(Cl)c(S(=O)(=O)N(C)c3ccccc3)c2)CC1	-3	.	.	.	0.69	1.1	0%	.	.
Cc1ccc(CCNC(=O)c2cc(S(=O)(=O)N3CCCCC3)c[nH]2)cc1	-3	-17	-39	-2.8	0.71	2.6	.	i	-1.1
Cc1cccc(NC(=O)C2SC(=Nc3c(C)cccc3C)C(C(=O)N3CCOCC3)=C2N)c1 (stereo not drawn)	-19	2	1	5.3	0.64	-0.2	14%	i	0.0
O=C(CCCN1C(=O)c2cccnc2Oc2ccc(Cl)cc21)N1CCCCC1	-6	-16	-15	0.8	0.67	4.2	-5%	i	1.3
O=c1[nH]c2ccc(Cl)cc2c(O)c1-c1ccccc1	-7	.	.	.	0.68	-0.4	-6%	.	.
COc1ccccc1C(=O)NCCC(=O)N(Cc1ccco1)Cc1cccs1	-3	-13	-24	1.5	0.68	2.0	.	i	-1.9
CCc1ccc(-c2csc(NC(=O)C3=NN(c4ccccc4)C(=O)CC3)n2)cc1	0	.	.	.	0.72	-0.6	.	.	.
O=C(N/N=C/c1ccccc1[N+](=O)[O-])c1ccc(CN2CCOCC2)cc1	7	15	17	2.0	.	3.2	.	i	-0.6
CCNC(=O)COc1ccc(/C=C2\COc3ccccc3C2=O)cc1OC	18	-23	-6	11	0.66	-1.0	.	i	5.8
COc1cccc(N2CC(C(=O)Nc3nnc(SCC(=O)c4ccccc4)s3)CC2=O)c1 (stereo not drawn)	.	-6	-10	-0.5	0.69	2.1	.	i	4.3
CN1CCCN(C(=O)c2ccc(Br)cc2)CC1	3	18	13	4.8	0.7	1.4	.	i	-2.2
CN1C(=O)c2cc(NS(C)(=O)=O)ccc2OC[C@@H]2O[C@H](CC(=O)NC3CCCCC3)CC[C@H]21	.	0	9	-1.0	.	.	.	i	-1.0
O=C(Nc1ccccc1F)N1CCCCN2[C@H](CO)[C@@H](c3ccc(C#Cc4ccccc4)cc3)[C@@H]2C1	.	4	18	0.7	.	.	.	i	-16
CC(=O)Nc1ccc(S(=O)(=O)N2CCN(C(=O)C(=O)c3cccc(C(F)(F)F)c3)CC2)cc1	.	-13*	-21*	0.7*	.	.	.	i	2.3
COc1cccc(C2=NOC(C(=O)Nc3cc(C)nn3-c3ccccc3)C2)c1OC (stereo not drawn)	-10	2	2	-2.5	0.73	0.7	-9%	i	3.3
Cc1c(C(=O)NC2CCOC2)oc2c(F)cccc12 (stereo not drawn)	-5	-5	-5	-0.7	0.71	-2.7	2%	i	-3.2

In the list so far, 2 have bromine.
SMILES	ALR H2O2 inh	Ecoli rRNA inh	Ecoli rRNA inh OD600	Ecoli rRNA inh RFP	Ecoli growth	HNF4A DNA FP	Vif TR-FRET	FGF22 binding	MLL AF4-AF9 inh
CN1CCN(CCCNC(=O)c2ccc(CS(=O)(=O)c3ccc(Br)cc3)o2)CC1	-6	10	6	-0.7	0.74	1.2	0%&-5%	i	0.0
CN1CCCN(C(=O)c2ccc(Br)cc2)CC1	3	18	13	4.8	0.7	1.4	.	i	-2.2

Next section
SMILES	ALR H2O2 inh	Ecoli rRNA inh	Ecoli rRNA inh OD600	Ecoli rRNA inh RFP	Ecoli growth	HNF4A DNA FP	Vif TR-FRET	FGF22 binding	MLL AF4-AF9 inh
CCCNC(=O)N(C)C[C@@H]1Oc2ncc(C3=CCCCC3)cc2C(=O)N([C@@H](C)CO)C[C@@H]1C	.	-1	-1	-1.7	.	.	.	i	-15
Cc1ccc(-c2nc(C3CCCN(S(=O)(=O)c4ccc(C(C)(C)C)cc4)C3)no2)cc1 (stereo not drawn)	.	4	5	-2.0	0.75	3.9	0%	i	-3.6
COc1ccccc1C(=O)Nc1ccc2c(c1)C(=O)N(C)[C@H]1CC[C@@H](CC(=O)NCCc3ccncc3)O[C@H]1CO2	.	-3	5	-2.1	.	.	.	i	-0.8
COc1cccc(CNS(=O)(=O)c2c(C)nc3scc(C)n3c2=O)c1	2	11	1	5.2	0.69	1.0	6%	i	1.1
NC(=O)c1nsc(C(=O)N(c2ccccc2)C(C(=O)NC2CCCC2)c2ccc3ncccc3c2)c1N (stereo not drawn)	.	7	8	-0.3	0.72	-0.4	.	i	-0.1
Cc1nc(NC(=O)COC(=O)CCc2nc3ccccc3s2)c(Cl)cc1Cl	-1	5	5	1.3	0.69	0.3	.	i	-0.9
N#CC(c1ccc(Cl)cc1)c1cccc(Cl)n1 (stereo not drawn)	-15	-20	-21	-6.8	0.7	-2.5	.	i	1.6
CCCn1c(CNC(=O)c2ccccc2)nc2ccccc21	.	.	.	.	0.7	-0.8	17%	.	.
CCCc1nc(SCC(=O)Nc2nc3c(s2)CCCC3)c2ccccc2n1	99*	-18	-6	1.1	0.65	2.0	3%	i	-25
Cc1ccc(OCCNC(=O)c2ccccc2O)cc1	.	-20	-38	-7.1	0.63	-0.3	.	i	-0.8
Cc1onc(-c2c(F)cccc2Cl)c1C(=O)Nc1cccc(Cn2cccn2)c1	-18	.	.	.	0.67	1.4	?	.	.
CCOC(=O)c1c(-c2ccccc2)csc1NC(=O)/C(C#N)=C/c1ccc(O)c(OC)c1	6	.	.	.	0.72	141	.	.	.
OCc1nc2ccccc2n1CCCOc1ccccc1	3	-20	-10	-2.5	0.69	0.0	30%	i	-10
CS(=O)(=O)N(CC(=O)N1CCN(Cc2ccccc2)CC1)Cc1ccccc1	0	.	.	.	0.69	-4.4	?	i	2.3
O=C(N[C@@H]1CC[C@@H](CCNS(=O)(=O)c2ccc(F)cc2)O[C@H]1CO)c1ccccn1	.	3	1	-3.0	.	.	.	i	2.1
CC(C)(C)c1ccc(C(=O)C2CCCN(C(=O)CCn3cncn3)C2)cc1 (stereo not drawn)	-4	-5	-10	-2.6	0.68	-0.1	-2%	i	-1.2
CCOc1ccc(OCCC(=O)OCC(=O)NCc2ccc(Cl)cc2)cc1	-1	-3	12	-1.3	0.68	2.3	5%	i	8.6
COc1ccc(C(=O)NCCN2CCC(n3c(=O)[nH]c4ccccc43)CC2)cc1F	.	5	3	0.8	.	4.1	.	i	-1.3
CC(=O)Nc1ccc(Cl)c(C(N)=O)c1	-8	.	.	.	0.66	-1.1	1%	.	.
Cc1cccc(-c2noc(CCCC(=O)NCC3CCCO3)n2)c1 (stereo not drawn)	-3	4	2	1.7	0.7	2.5	.	i	-0.1
NC(=O)c1ccc(NC(=O)CN2CCN(Cc3ccccc3)CC2)cc1	-2	16	8	3.2	0.66	2.0	-9%	i	-1.7
CCOC(=O)N1CCN(C(=O)c2cc(COc3ccc4ncccc4c3)on2)CC1	-11	-15	-19	-16	0.69	2.3	27%	i	-2.8
C[C@H](CO)N1C[C@H](C)[C@H](CN(C)C(=O)CN(C)C)Oc2cc(Br)ccc2S1(=O)=O	.	-3	-4	-3.8	.	.	.	i	-2.6
COc1cccc(NC(=O)CN(C)C(=O)[C@@H]2CCCN2C(=O)c2cccs2)c1	7	2	7	2.0	.	1.1	.	i	0.2
Cc1ccc2c(Cl)c(C(=O)NCC3CCCO3)sc2c1 (stereo not drawn)	6	.	.	.	0.7	-0.9	-6%	.	.
Cc1noc(C)c1S(=O)(=O)Nc1ccc2c(c1)CC(=O)N([C@H](C)CO)C[C@@H](C)[C@H](CN(C)S(=O)(=O)c1ccccc1)O2	.	0	-2	-2.9	.	.	.	i	-1.7
O=c1[nH]cnc2c1cnn2Cc1ccccc1	-47	.	.	.	0.71	-0.5	32%	.	.
Cc1ccc(C(=O)Nn2cnnc2)cc1	20	8	17	-3.0	0.67	4.2	0%	i	-3.0
COC(=O)c1scc(S(=O)(=O)C(C)(C)C)c1N	8	6	4	-1.0	0.69	2.5	6%	i	.
CCCN(CCC)C(=O)c1cc(-c2ccc3c(c2)OCO3)nc2ccccc12	-11	.	.	.	0.73	0.4	71%	.	.
CC(C)NC(=O)c1cc(C2CCCCN2S(=O)(=O)c2ccc(F)cc2F)on1 (stereo not drawn)	.	-5	-2	4.3	.	-1.1	.	i	-4.1
O=C(N[C@H]1C/C=C\C[C@H](CC(=O)N(CCO)Cc2ccccc2)C(=O)N[C@H](Cc2c[nH]c3ccccc23)COC1=O)OCC1c2ccccc2-c2ccccc21	-1	.	.	.	0.79	3.5	.	i	-8.5
O=[N+]([O-])c1cccnc1C1OCCO1	.	-3	11	0.3	.	-1.4	0%	i	-3.8
CCc1ccc(NC(=O)[C@H](NC(=O)[C@@H]2Cc3ccccc3CN2)c2ccccc2)cc1	0	-16	-27	18	0.64	2.3	5%	i	2.2
CN(C(=O)c1ccccc1C(=O)OCC(=O)c1ccc(F)cc1)c1ccccc1	.	-6	-11	0.3	0.69	-2.2	-15%	i	-4.5

Part of the list above in order of formula weight, descending:
SMILES	ALR H2O2 inh	Ecoli rRNA inh	Ecoli rRNA inh OD600	Ecoli rRNA inh RFP	Ecoli growth	HNF4A DNA FP	Vif TR-FRET	FGF22 binding	MLL AF4-AF9 inh
Cc1onc(-c2c(F)cccc2Cl)c1C(=O)Nc1cccc(Cn2cccn2)c1	-18	.	.	.	0.67	1.4	?	.	.
COc1cccc(NC(=O)CN(C)C(=O)[C@@H]2CCCN2C(=O)c2cccs2)c1	7	2	7	2.0	.	1.1	.	i	0.2
NC(=O)c1ccc(NC(=O)CN2CCN(Cc3ccccc3)CC2)cc1	-2	16	8	3.2	0.66	2.0	-9%	i	-1.7

An excerpt (hit frequency here may not be typical).
